Screens from PubChem BioAssay.
eIF4H FP inh – human eIF4H binding inhibitors, primary screen, translation initiation inhibitor project, biochemical, uHTS, fluorescence polarization | Eukaryotic translation initiation factor 4H (Homo sapiens), Q15056 | eIF4H fluorescence polarization binding assay | inhibition, % at 35 µM | 0.94% of 290,000 active;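 active = 50% or more with normal probe brightness, or confirmed in later tests; about a fifth of its hits are not listed in these tables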;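 also: calls also rest on retests at 20 µM and on dose response follow-up; 0% = protein and probe with vehicle and 100% = probe without protein; strong numbers were not always called active; many hits fall short of the cut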
MT1-MMP act inh – blockers of MT1-MMP proenzyme processing, primary screen, HT1080 RFP-PRO-GFP cells, GFP/RFP fluorescence. Matrix metalloproteinase-14 (Homo sapiens), P50281. GFP/RFP ratio fluorescence, overnight; percent of plate control window, DMSO zero. GFP/RFP ratio change, % at 20 µM. 0.061% of 360,000 active. AID 651647, 2012;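 active = GFP/RFP ratio change of at least 30% with cell ATP level not reduced by more than half and red fluorescence within 50% of control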; also: strong numbers were not always called active
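Read-out: GFP/RFP fluorescence ratio; Test system: RFP-PRO-GFP reporter HT1080 cells; Compound dosing: single-point 20 µM compound, 1% DMSO; Times: overnight compound exposure at 37 °C.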
Env fusion inh – inhibitors of HIV-1 Env-driven cell-cell fusion, primary screen, HeLa-JRFL effector, CEM21 target cells, luciferase; AID 651610, 2012; 1.1% of 360,000 active; inhibition, % at 12.3 µM;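 active = mean replicate inhibition score of at least 50 and every replicate individually at or above 50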;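 also: 0% = plate neutral controls and 100% = maraviroc near 300 nM; one replicate is shown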
Rce1 inhib – yeast Rce1p protease inhibitors, primary screen, biochemical, fluorescence, cell-free homogeneous | yeast membranes, quenched prenylated peptide cleavage fluorescence | calls only | 0.27% of 290,000 active | AID 2563, 2010;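 active = fall in fluorescence gain of 50% or more versus controls, with final raw signal at or below 3038400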;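 also: plate controls were neutral control wells for no effect and wells lacking membranes for full effect; tested at 10 µM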
Target sequence (Q03530 whole entry, looked up): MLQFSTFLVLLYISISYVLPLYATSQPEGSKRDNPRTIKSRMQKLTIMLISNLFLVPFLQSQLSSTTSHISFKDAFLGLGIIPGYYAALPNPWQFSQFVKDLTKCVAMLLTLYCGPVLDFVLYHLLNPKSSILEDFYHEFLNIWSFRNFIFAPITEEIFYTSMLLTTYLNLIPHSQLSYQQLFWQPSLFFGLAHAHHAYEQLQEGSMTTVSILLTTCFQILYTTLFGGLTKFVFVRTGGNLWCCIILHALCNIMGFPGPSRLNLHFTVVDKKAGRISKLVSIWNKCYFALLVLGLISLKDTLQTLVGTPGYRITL
PABP FP inh – PABP poly(A) RNA binding inhibitors, primary screen, biochemical, fluorescence polarization, uHTS; inhibition, % at 35 µM; AID 2014, 2009; Polyadenylate-binding protein 1 (Homo sapiens), P11940; 1% of 290,000 active;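 active = 50% or more with normal probe brightness, or confirmed in later tests; about a fifth of its hits are not listed in these tables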;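 also: calls also rest on retests at 20 µM and on dose response follow-up; controls were probe without protein and protein plus probe with vehicle; some compounds called inactive have numbers as strong as hits; many hits fall short of the cut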
Target sequence (P11940 whole entry, looked up): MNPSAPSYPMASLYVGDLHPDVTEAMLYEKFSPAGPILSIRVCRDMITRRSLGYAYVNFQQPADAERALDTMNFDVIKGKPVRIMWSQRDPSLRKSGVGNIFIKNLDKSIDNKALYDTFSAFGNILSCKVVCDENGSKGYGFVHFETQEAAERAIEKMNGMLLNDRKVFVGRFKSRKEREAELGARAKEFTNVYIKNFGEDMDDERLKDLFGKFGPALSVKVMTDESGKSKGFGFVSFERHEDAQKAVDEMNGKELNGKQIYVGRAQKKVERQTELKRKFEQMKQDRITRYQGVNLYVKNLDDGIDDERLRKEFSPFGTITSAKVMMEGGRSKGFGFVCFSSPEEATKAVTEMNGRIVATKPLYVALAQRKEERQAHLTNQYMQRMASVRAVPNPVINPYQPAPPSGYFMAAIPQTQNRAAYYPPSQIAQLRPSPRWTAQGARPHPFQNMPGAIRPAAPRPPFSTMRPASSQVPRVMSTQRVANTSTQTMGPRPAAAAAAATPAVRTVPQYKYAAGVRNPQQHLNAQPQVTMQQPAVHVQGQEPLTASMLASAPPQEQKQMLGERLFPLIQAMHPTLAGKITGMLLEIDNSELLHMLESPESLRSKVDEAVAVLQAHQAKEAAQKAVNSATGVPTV
Yeast UUG start – modulators of yeast start codon fidelity, primary screen, whole organism, S. cerevisiae, single point, plate reader. AID 602363, 2012. S. cerevisiae UUG-firefly luciferase reporter, luminescence/redox ratio. 0.13% of 350,000 active. activity score, % at 18.7 µM;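 active = replicate mean at a twofold rise or more, about +100% in these data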;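 also: firefly luciferase made from a UUG start codon reports start codon fidelity; reporter light over untreated wells divided by growth signal over untreated wells; some hits fall short of that in this replicate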
CSC inhib – cancer stem cell viability inhibitors, primary screen, luminescence. cancer stem cell-like cells viability. inhibition, % at 7.5 µM. 1.1% of 300,000 active. AID 2717, 2010;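 active = mean at 75% or more and at least half the replicates too; tested in HMLE shEcad cells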;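 also: 0% = median of negative and 100% = median of positive control wells; the first replicate is given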
eIF4H FP inh retest – recorded beside eIF4H FP inh, whose call it bears; inhibition, %; compound at 20 µM; confirmation average;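 mean of two retest wells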
PABP FP inh retest – second read-out of PABP FP inh, no call of its own (marks repeat the call); inhibition, %; compound at 20 µM; confirmation repeats;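 mean of two retest wells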
MT1-MMP act inh RFP – also measured in MT1-MMP act inh; calls as there; RFP signal change, %; measured here: RFP expression control read;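 0 = vehicle wells; hits needed this value within 50% of zero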
An asterisk follows results filed as active; i = inactive; . = not tested or not shown.

SMILES	eIF4H FP inh	MT1-MMP act inh	MT1-MMP act inh RFP	Env fusion inh	Rce1 inhib	PABP FP inh	Yeast UUG start	CSC inhib	others
Cc1cccc(NC(=O)c2cc3c(=O)n4ccccc4nc3s2)c1	29.0	2.9	-0.6	3.1	i	23.9	-3.5	-2.0
COc1ccc(C(=O)Nc2c(-c3cccs3)c(=O)c3ccccc3n2C)cc1	-9.8	-9.9	-0.7	11.0	i	7.1	.	10.3
N#C/C(=C\c1ccc(OCC(N)=O)cc1)S(=O)(=O)c1ccccc1	-7.2	2.2	8.3	-4.1	i	5.1	-1.5	-0.1
Cc1cc(C)c(S(C)(=O)=O)c(N(C)N)n1	7.7	-0.9	-2.4	-0.1	i	19.6	.	2.6
CCOC(=O)C1=NN(C(=O)c2ccc(OC)cc2)C(O)(c2ccc(Cl)cc2)C1 (stereo unspecified)	41.6	-18.5	7.9	4.6	i	1.2	.	-6.4
CC(=O)Nc1ccc(Nc2nnc(-c3ccc(C)c(S(=O)(=O)NCC4CCCO4)c3)c3ccccc23)cc1 (stereo unspecified)	12.3	-0.9	3.9	3.1	i	1.8	-18.3	-14.0
CCCCc1nnc(NC(=O)CN2C(=O)C3CCCCC3C2=O)s1 (stereo unspecified)	.	2.9	-1.9	-4.3	i	.	.	-2.4
O=C(c1ccc([N+](=O)[O-])cc1)N1CCN=C1SCc1ccccc1	-1.6	-2.5	-7.8	-2.6	i	-7.1	.	-5.6
CC(C)(C)c1ccc(OCC(=O)NNC(=O)CCc2ccccc2)cc1	-5.7	1.2	5.1	2.9	i	-4.1	6.5	-0.5
CCCCCCNC(=O)c1ccc(Br)o1	1.9	-1.3	1.3	31.1	i	8.9	7.4	13.8
CCOc1ccc(CNS(=O)(=O)c2cccs2)cc1OCC	-7.9	2.7	2.6	6.2	i	1.8	-7.2	-14.6
COc1ccccc1NC(=O)CSCC(N)=O	-6.5	-2.5	1.3	.	i	2.0	-25.2	0.0
COc1ccc(C=O)cc1Oc1nc(Cl)ncc1F	0.0	-0.3	2.3	-1.6	i	1.7	-6.9	-24.4
Cc1nnc(SCC(=O)NC(=O)Nc2ccc3c(c2)OCCO3)s1	-10.6	2.4	1.9	-10.4	i	-17.8	.	1.8
COc1ccc(NC(=O)c2c(NC(=O)CCC(=O)O)sc(-c3ccccc3)c2C)cc1	-4.6	2.2	7.2	15.5	.	-3.0	.	2.2

By substructure, the entries above containing a halogen.
SMILES	eIF4H FP inh	MT1-MMP act inh	MT1-MMP act inh RFP	Env fusion inh	Rce1 inhib	PABP FP inh	Yeast UUG start	CSC inhib	others
CCOC(=O)C1=NN(C(=O)c2ccc(OC)cc2)C(O)(c2ccc(Cl)cc2)C1 (stereo unspecified)	41.6	-18.5	7.9	4.6	i	1.2	.	-6.4
CCCCCCNC(=O)c1ccc(Br)o1	1.9	-1.3	1.3	31.1	i	8.9	7.4	13.8
COc1ccc(C=O)cc1Oc1nc(Cl)ncc1F	0.0	-0.3	2.3	-1.6	i	1.7	-6.9	-24.4

Continued:
SMILES	eIF4H FP inh	MT1-MMP act inh	MT1-MMP act inh RFP	Env fusion inh	Rce1 inhib	PABP FP inh	Yeast UUG start	CSC inhib	others
O=S(=O)(NCc1ccco1)c1cccc(S(=O)(=O)N2CCCCC2)c1	8.6	6.1	2.1	-77.9	i	11.0	2.4	1.8
O=C(O)Cc1c(-c2ccccc2Cl)c2cc(Br)ccc2[nH]c1=O	3.5	12.1	-4.7	-12.6	i	-0.6	1.9	-4.1
CCN1C(=O)C2(Nc3ccccc3-c3nc4ccccc4n32)c2cc(OC)ccc21 (stereo unspecified)	-12.7	5.3	-1.7	44.6	i	3.7	-11.6	0.0
Cn1ncc2c(Nc3ccccc3Cl)nc(Nc3ccccc3Cl)nc21	7.2	-5.6	-3.8	11.6	i	3.0	.	6.6
CSc1cccc(NC(=O)CCCn2c(=O)c3cccn3c3cccnc32)c1	.	-0.9	1.1	13.6	i	.	-3.3	-14.7
CC(C)[C@H](NS(=O)(=O)c1ccccc1)C(=O)OCC(=O)N1N=C(c2ccc(Cl)cc2)CC1c1ccco1 (stereo partly specified)	-4.3	-2.3	2.8	-15.6	i	-1.3	.	-2.1
Cc1ccc([C@@H]2CC=C(C(=O)O)[C@H](c3ccccc3F)N2S(=O)(=O)c2ccc(C)cc2)cc1	.	-1.2	1.3	5.6	.	.	12.6	-0.2
COc1cccc(NC(=O)CN(C)C(=O)c2ccc(NC(=O)CC3SC(N4CCCCC4)=NC3=O)cc2)c1 (stereo unspecified)	.	-1.7	1.3	-16.6	i	.	-0.2	-19.7
CCN1CCN(CC(=O)Nc2ccc3c(c2)OCCO3)C(=O)C1=O	-6.6	-0.2	7.8	1.1	i	5.3	-5.0	-7.6
CCOC(=O)c1c(NS(=O)(=O)Cc2ccccc2)sc2c1CCCC2	7.2	-28.7	4.1	-2.0	.	3.9	-11.6	6.4
Cc1cccc(CNCc2ccccc2)c1	-4.3	8.7	5.0	6.8	i	-0.3	-1.2	-4.4
CCSc1nc2c(c(=O)n1Cc1ccccc1)SC(C)C2 (stereo unspecified)	31.5	-0.6	-9.3	.	i	-5.4	-5.5	6.0
CC(OC(=O)Cn1cnc2c1c(=O)n(C)c(=O)n2C)C(=O)Nc1ccc(Cl)cc1 (stereo unspecified)	.	6.5	5.5	-8.1	i	.	13.9	3.3
O=C(Nc1ccccc1)Nc1cccc(Cl)c1	-9.5	-2.1	-7.6	-87.7	i	-1.3	-8.3	-0.4
CCN(CC)C(=O)Cn1cc(C(=O)C(=O)NCCCN2CCOCC2)c2ccccc21	-7.9	-1.7	0.0	11.1	i	-1.7	2.6	0.0
CCN(CC)Cc1c(C(=O)N/N=C/c2cccnc2)nnn1-c1nonc1N	-7.6	6.0	4.0	5.4	i	12.8	-7.7	.
CCn1cc([N+](=O)[O-])c(C(=O)Nc2ccn(C34CC5CC(CC(C5)C3)C4)n2)n1	0.4	1.2	-0.7	.	i	21.4	.	-9.4
Cc1cc2nc(N=C(N)N)nc(C)c2cc1C	4.0	-24.2	-17.9	-4.5	.	3.7	-13.4	.
Cc1cc(C)nc(N/N=C/C2=C(O)CC(c3ccccc3)CC2=O)n1 (stereo unspecified)	1.4	.	.	-5.3	i	5.8	.	26.9
CCCC(=O)N1c2ccccc2NC2=C(C(=O)CCC2)C1c1ccc(F)cc1 (stereo unspecified)	-2.2	0.5	2.3	-1.7	i	16.7	-10.4	.
S=C(NCc1cccs1)Nc1ccc(Br)cc1Cl	-6.2	-1.3	-8.7	-20.5	i	0.9	-19.9	-1.4
O=C(NCc1ccc(F)cc1)c1cc(C2CCCCN2C(=O)CCCc2ccccc2)on1 (stereo unspecified)	.	-1.0	-11.9	30.6	.	.	-16.9	.
O=C(OCc1ccc([N+](=O)[O-])cc1)c1cc(S(=O)(=O)N2CCCCC2)ccc1N1CCOCC1	.	-8.0	-17.2	26.9	i	.	-5.5	-5.4
COc1ccc(-n2c(-c3ccc(C)cc3)n[nH]c2=S)cc1	3.9	-1.2	-1.3	-4.3	i	-7.6	.	-7.9
Cc1ccc(C)c(OCC(=O)NNC(=O)CCN2CCN(c3ccccc3)CC2)c1	.	2.2	0.4	-0.4	.	.	2.4	-2.6
C=CC[C@@H](CC(=O)N(CCO)Cc1ccccc1)C(=O)NC[C@H](OC(=O)[C@@H](CC=C)CC(=O)OC(C)(C)C)c1ccccc1	.	-12.8	-9.7	-18.7	.	.	12.7	0.5
O=C(c1ccccc1)c1nn(-c2cccc(Cl)c2)ccc1=O	-1.9	1.9	0.4	6.0	i	4.4	-12.0	-5.0
ClC1=C(Cl)C(Cl)=C(Cl)C1=C/C=C/c1ccccc1	89.5	-27.5	-21.7	-96.1	i	27.1	-16.7	103.4*	eIF4H FP inh retest=23.5;PABP FP inh retest=45.0
Cc1cc(N2CC(C)OC(C)C2)nc(C(C)C)n1 (stereo unspecified)	4.6	1.9	-0.3	5.0	i	2.8	.	-17.1
Cc1cccc(Oc2cc(NC(=O)c3ccccc3)cc([N+](=O)[O-])c2)c1	2.0	-20.2	-32.5	.	i	-9.8	-16.6	55.2
N#Cc1nc(-c2ccc(Cl)cc2)oc1NCc1cccc2c1OCO2	-7.8	5.6	6.5	-6.5	i	-27.5	1.1	.
O=C1CCN(CCc2ccccc2)CCN1[C@H](CSc1ccc(Br)cc1)c1ccccc1	7.1	-3.1	-6.1	13.4	i	-13.1	-29.4	41.2
Fc1ccccc1NC(=S)NCc1ccccc1	1.9	-3.2	-2.3	15.6	i	3.1	14.6	-2.8
CCC1(c2ccccc2)NC(=O)N(CC(=O)Nc2ccccc2C(=O)NC2CCCC2)C1=O (stereo unspecified)	.	2.5	0.7	.	i	.	.	-20.3
COC(=O)c1ccc(NC(=O)c2cc3sccc3n2C)cc1	5.2	4.7	-1.2	-1.1	.	2.8	-9.3	-5.3
CCCc1cc(C(=O)OCC(=O)NCCc2ccccc2)sc1C	.	-2.8	2.7	13.0	.	.	-22.2	.
CC(=O)c1c(C)[nH]c(C(=O)OCC(=O)Nc2c(C)cccc2C)c1C	.	.	.	76.4*	.	.	-16.6	-6.8
CCN1N=C(C)C=C(c2ccccc2)n2c1nc1ccccc12	-0.3	2.5	2.3	0.9	i	-5.3	-1.9	-2.2
CCNCCNC(=O)c1c(O)c2c([nH]c1=O)CCCC2	-0.1	-5.4	2.8	.	i	1.2	-10.7	31.0
Cc1ccc2nc(SCc3ccccc3)c(C=O)c(=O)n2c1	-5.4	0.5	-4.1	7.0	i	1.9	.	9.4
O=C(NCCN1C(=O)S/C(=C\c2ccc(Cl)c(Cl)c2)C1=O)C1COc2ccccc2O1 (stereo unspecified)	-3.4	-0.4	-3.0	4.6	i	1.2	-1.1	8.0
CCOC(=O)c1c(NC(=O)CSc2nnc3ccccn23)sc2c1CCC2	-1.7	-3.0	-5.3	9.8	i	7.4	.	1.0
COc1cccc(CNC(=O)Cn2c(=O)oc3cc(S(=O)(=O)N4CCCCC4)ccc32)c1	-2.0	0.1	-7.8	6.1	i	-5.1	11.6	9.5
COc1ccc(CNC(=O)CN(C(=O)Cn2nnc(-c3ccccc3F)n2)c2ccc(C)cc2)cc1	-0.7	0.6	0.6	7.4	i	2.3	-6.8	-17.4
Cc1ccc(OCC(O)CN2C(=O)NC(C)(C)C2=O)cc1C (stereo unspecified)	-6.8	-3.7	-2.1	-7.1	i	-10.1	-21.1	-10.1
CN(C)CCCn1c(=O)n(Cc2ccccc2)c(=O)c2c3c(sc21)CCCCC3	-1.0	-20.8	-10.6	63.7*	i	-5.5	-0.6	4.7
Cc1cc(C(=O)N2CCN(Cc3ccc4c(c3)OCO4)CC2)on1	-2.3	-0.1	0.8	-5.0	i	-3.8	-14.1	-6.3
CCCCn1c(N)c(N(CCOC)C(=O)CC(NC(=O)c2ccccc2)c2ccccc2)c(=O)[nH]c1=O (stereo unspecified)	.	2.3	3.4	4.1	i	.	-3.0	16.6
O=C(COC(=O)CNC(=O)c1ccccc1)Nc1ccc(Cl)cc1C(F)(F)F	-11.7	3.4	4.4	5.7	i	2.0	.	.
Cc1ccc(-n2[nH]c(C)c(C=Nc3ccc(S(=O)(=O)Nc4nccs4)cc3)c2=O)cc1	-1.3	.	.	.	i	-14.7	.	.

Some of the compounds tested. The share of hits here may be higher or lower than overall.
